Bioassay records deposited in PubChem BioAssay by several laboratories.
CBX7 inh – CBX7 chromodomain binding inhibitors, primary screen, biochemical, AlphaScreen; AlphaScreen His6-CBX7 / biotin-H3K27me3 peptide binding; stronger effect = lower value; normalised signal (fraction of DMSO) (test concentration not listed); Chromobox protein homolog 7 (Homo sapiens), O95931; hit rate 1.1% among 66,000; in the data active = normalised signal below about 0.5;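 also: 100 nL library stock added to about 20 µL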
Target sequence (O95931 whole entry, looked up): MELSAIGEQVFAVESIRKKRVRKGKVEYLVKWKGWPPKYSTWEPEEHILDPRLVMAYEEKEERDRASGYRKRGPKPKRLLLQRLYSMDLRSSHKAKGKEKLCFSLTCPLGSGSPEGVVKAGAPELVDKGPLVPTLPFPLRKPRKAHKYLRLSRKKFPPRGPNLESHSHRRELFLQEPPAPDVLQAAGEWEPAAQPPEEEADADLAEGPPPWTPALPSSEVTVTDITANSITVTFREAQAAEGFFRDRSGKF
CBX7 inh z-score – second read-out of CBX7 inh, no call of its own (marks repeat the call); z-score; measured here: z-score of CBX7 signal; some inactives read as strong as hits; reference of the scale not given here;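 same signal on another scale; lower means less binding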
The depositor's hits bear a star. This is a subset; rates above refer to the full screens.

Sample of the layout (2 entries):
SMILES	CBX7 inh	CBX7 inh z-score
Cc1cccc(CN2C(=O)c3ccccc3Sc3ccc(C(=O)NCc4ccccc4)cc32)c1	0.97	-1.5
Cc1ccc2c(c1)-c1c(cnn1CC(=O)N(C)c1ccc(C)c(C)c1)CO2	1	0.59

This part in full, previewed entries included:
SMILES	CBX7 inh	CBX7 inh z-score
Cc1cccc(CN2C(=O)c3ccccc3Sc3ccc(C(=O)NCc4ccccc4)cc32)c1	0.97	-1.5
Cc1ccc2c(c1)-c1c(cnn1CC(=O)N(C)c1ccc(C)c(C)c1)CO2	1	0.59
Fc1ccccc1COc1ccc(-c2nnn(Cc3ccc(Cl)cc3)n2)cc1	1.3	15
Cc1c(C(=O)NCc2ccccc2Cl)oc2ccc(S(=O)(=O)N3CCCCCC3)cc12	0.95	-0.88
O=C(Nc1c(C(=O)N2CCCCC2)cnn1-c1ccccc1)c1cccc(F)c1	0.9	-1.1
CC(C)c1ccc(Nc2ncnc3c2cnn3-c2ccc(Cl)cc2)cc1	1	-0.016
O=C(Cn1c2ccccc2n2cc(-c3ccccc3)cc12)NCCO	0.98	-0.41
COc1ccc(CNC(=O)C2CC(c3cccc(OC)c3)=NO2)cc1 (centres undefined)	1	0.31
CC(=O)c1nn(-c2ccc(C)cc2)cc1C(=O)c1cccs1	1	0.085
CCOC(=O)C1CCN(C(=O)Cn2ncc3ccsc3c2=O)CC1	1.1	2.8
CC1CCCN(S(=O)(=O)c2ccc3[nH]c(=O)cc(C(=O)NCC4CCCO4)c3c2)C1 (centres undefined)	1.1	0.79
COCCn1c(=O)[nH]c2cc(C(=O)NCCc3c[nH]c4ccccc34)ccc2c1=O	0.98	-0.76
Cc1nnc2ccc(NCCC3=CCCCC3)nn12	0.94	-1.7
O=C(NCCc1ccc(Cl)cc1)c1ccc(Cn2c(=O)[nH]c3ccsc3c2=O)cc1	0.92	-1.8
Cc1ccc(-c2cc(C(=O)NCCCN3CCOCC3)c3ccccc3n2)c(C)c1	1	-0.03
Cc1cccc(-c2noc(CN(C(=O)C(C)(C)Oc3ccc(Cl)cc3)C(C)C)n2)c1	1	-0.094
Cc1ccc(S(=O)(=O)c2nc(Cc3ccccc3)oc2N2CCCCC2)cc1	1.6	2.1
CC(=O)Oc1ccc2cc(-c3nc4ccccc4n3C)c(=O)oc2c1	0.94	-0.24
Fc1ccc(C2CC(c3ccccc3F)n3ncnc3N2)cc1 (centres undefined)	1	0.53
CCCN1CCN(CCCNC(=O)CN2C(=O)COc3ccccc32)CC1	1	0.27

In a second layout: 5 of the compounds above
Values run as follows: CBX7 inh	CBX7 inh z-score
Cc1cccc(CN2C(=O)c3ccccc3Sc3ccc(C(=O)NCc4ccccc4)cc32)c1
    0.97	-1.5
O=C(NCCc1ccc(Cl)cc1)c1ccc(Cn2c(=O)[nH]c3ccsc3c2=O)cc1
    0.92	-1.8
CC(=O)Oc1ccc2cc(-c3nc4ccccc4n3C)c(=O)oc2c1
    0.94	-0.24
CC(=O)c1nn(-c2ccc(C)cc2)cc1C(=O)c1cccs1
    1	0.085
Fc1ccccc1COc1ccc(-c2nnn(Cc3ccc(Cl)cc3)n2)cc1
    1.3	15

Sorted by value in CBX7 inh z-score (falling): 6 from the list above
compound	CBX7 inh z-score
Fc1ccc(C2CC(c3ccccc3F)n3ncnc3N2)cc1 (centres undefined)	0.53
CC(=O)c1nn(-c2ccc(C)cc2)cc1C(=O)c1cccs1	0.085
CC(C)c1ccc(Nc2ncnc3c2cnn3-c2ccc(Cl)cc2)cc1	-0.016
Cc1ccc(-c2cc(C(=O)NCCCN3CCOCC3)c3ccccc3n2)c(C)c1	-0.03
Cc1cccc(-c2noc(CN(C(=O)C(C)(C)Oc3ccc(Cl)cc3)C(C)C)n2)c1	-0.094
CC(=O)Oc1ccc2cc(-c3nc4ccccc4n3C)c(=O)oc2c1	-0.24

(continued)
SMILES	CBX7 inh	CBX7 inh z-score
CCOC(=O)C1CCN(c2c(N3CCN(c4cc(C)ccc4C)CC3)c(=O)c2=O)CC1	0.94	-1.6
O=C(COc1ccccc1)Nc1ccc(-c2nc3ncccc3o2)cc1	0.96	-0.31
Cc1c(NC(=O)c2ccccc2)cccc1-c1nc2ccccc2o1	1	0.016
Nc1nonc1-c1noc(COc2cccc(C(F)(F)F)c2)n1	1	1.3
Cc1ccc(CNC(=O)C2CCCN(S(=O)(=O)c3ccc(Br)s3)C2)cc1 (centres undefined)	1.1	1.5
Cc1nc(-c2ccccc2)sc1C(=O)Nc1ccncc1	1.1	2
O=C(Cc1ccccc1)Nc1c2c(nn1-c1ccc(Cl)cc1)CS(=O)(=O)C2	1	0.22
Cc1cccc(NC(=O)Cn2nc(Cc3cccnc3)c3ccccc3c2=O)n1	1.2	2.4
Fc1ccccc1N1CCN(CCCNc2ccc3nnc(-c4ccccc4)n3n2)CC1	0.95	-1.1
COC(=O)c1cc2ccsc2n1Cc1ccc(C)cc1	1.1	3.9
Cc1ccc(NC(=O)[C@H](CCS(C)(=O)=O)N2Cc3ccccc3C2=O)c(C)c1	1	0.27
Cc1c(C(=O)O)sc2ncn(Cc3ccccc3F)c(=O)c12	1	-0.091
Cc1cc(C(=O)N2CCN(C3CCCCC3)CC2)nn1-c1ccccc1	1	0.75
CCOC(=O)c1nnn(-c2nonc2N)c1CSc1nnc(N)s1	1	0.69
Fc1ccccc1-c1nc(Nc2cccc(Cl)c2)c2ccccc2n1	1.4	0.56
CCOC(=O)c1cnc2ccc(OCC)cc2c1NCc1ccc(F)cc1	1.4	0.47
COc1ccc(-c2cc3nc(C)c(CCC(=O)NCC4CCN(CC(C)C)C4)c(C)n3n2)c(OC)c1 (centres undefined)	1.4	4.8
Cc1nc2c(-c3ccc(F)cc3)c(C)nn2c(C)c1CCC(=O)NCc1ccc2c(c1)OCO2	1	1.3
COC(=O)CNC(c1ccccc1)c1cc(Br)ccc1NC(C)=O (centres undefined)	1	0.86
Cn1cc(CC(=O)Nc2ccc(Oc3ccccc3)cc2)c2ccccc21	0.86	-2
NC(=O)c1oc2ccccc2c1NC(=O)c1ccc(S(=O)(=O)N2CCCCC2)cc1	1	0.68
COc1ccc(-c2nc(C#N)c(NCCN3CCOCC3)o2)cc1	1.2	1.9
CCC1Sc2ccccc2N(CC(=O)NCc2cccc(OC)c2)C1=O (centres undefined)	1	2.2
CC(C)CCNC(=O)C1C2C=CC3(CN(Cc4ccccc4Cl)C(=O)C13)O2 (centres undefined)	1	1.4
CN1CCN(C(=O)CCCN2C(=O)CSc3ncccc32)CC1	1	0.086
CCc1ccc(CNC(=O)Cc2cn(C)c3ccccc23)cc1	0.94	-2.1
O=C(CSc1ccc2nnc(-c3ccccc3)n2n1)N1CCN(c2ccccc2)CC1	1	1.4
CCN1CCN(CCNC(=O)C2CCN(Cc3nc(-c4ccc(Cl)cc4)oc3C)CC2)CC1	1.5	4.2
COc1ccc(OC)c(-c2cc(C(=O)Nc3nnc(-c4ccncc4)s3)c3ccccc3n2)c1	1	-0.11
Cc1ccc(NC(=O)c2ccc3c(c2)N(Cc2ccc(F)cc2)C(=O)CS3=O)c(Cl)c1 (centres undefined)	1.2	2.4
COc1cc2c(cc1OC)C(c1cccc(C)c1)CC(=O)N2 (centres undefined)	1.5	1.9
Cc1nc2c(-c3ccc(F)cc3)c(C)nn2c(C)c1CCC(=O)N1CCN(c2ccccn2)CC1	0.99	-0.033
CN1CCN(CCCNC(=O)Cc2cn(C)c3ccccc23)CC1	0.85	-1.8
CCOC(=O)C1CCN(c2c(NCc3ccc(C(=O)NC4CCCC4)cc3)c(=O)c2=O)CC1	0.99	-0.4
Cc1cc(C)cc(NC(=O)C(NS(=O)(=O)c2ccc3nc(C)sc3c2)C(C)C)c1 (centres undefined)	1	0.34
Cc1nc2cc(-c3cccc(F)c3)nn2c(C)c1CCC(=O)NCC1CCN(C2CCCC2)C1 (centres undefined)	1	0.4
Cc1ccc(NC(=O)c2cnc(Nc3nc4ccccc4s3)nc2C)cc1	1	0.027
COc1cc(NS(=O)(=O)c2ccc3c(c2)CCN3C(=O)C2CCC2)cc(OC)c1	1	0.93
Cc1cccc(Nc2nc(C(F)(F)F)c(-c3ccccc3)s2)c1C	1	-0.04
COc1ccccc1CNC(=O)c1cn(C)c(=O)c2cc(OC)c(OC)cc12	1.1	1.1
OCCCNc1ncnc2c1c(-c1ccccc1)cn2-c1ccc(Br)cc1	1	0.52
Cc1cc(C)c(C#N)c(SCc2ccccc2Cl)n1	1.2	2.1
COc1cc(OC)c(NC(=O)CNC(=O)Cn2cnc3sc(C)cc3c2=O)cc1Cl	0.98	-0.67
COc1ccc(N(CC(=O)Nc2ccc(C(C)C)cc2)S(=O)(=O)c2c(C)n[nH]c2C)cc1	0.94	-0.41
Cc1ccc(S(=O)(=O)Nc2ccc3c(c2)ncn3-c2ccccc2)cc1	0.96	-0.071
Cc1ccccc1OCC(=O)Nc1ncc(Cc2ccc(Br)cc2)s1	1	-0.0057
Cc1csc(NC(=O)CSc2nnc(-c3c[nH]c4ccccc34)n2C)n1	1	0.4
COc1ccc(C)cc1Nc1cc(C)nc2nc(C)nn12	1	0.45
CCCn1cnc2cc(NCc3ccc(Cl)cc3Cl)ccc21	0.75	-6.3
Cn1c(CNc2nc3ccccc3n2CCN2CCCCC2)nc2ccccc21	0.96	-1.7
COc1ccc(-c2nc(C(=O)NCc3ccccc3Cl)c(C)o2)cc1	1	0.091
CCC(=O)N1CCc2cc(Br)cc(S(=O)(=O)NCCCN3CCOCC3)c21	1	0.97
COc1ccc(OC)c(CN2CCN(Cc3ccccc3Cl)CC2)c1	1.1	2
Cc1ccc(-c2nn(C)c(=O)c3ccccc23)cc1S(=O)(=O)NC(C)c1ccccc1 (centres undefined)	1	0.59
Cc1ccc(NC(=O)N2CCC(c3ccccc3)C2)cc1C (centres undefined)	0.92	-1.4
Cc1ccc2c(c1)-c1c(cnn1CC(=O)N(C)C1CCCCC1)CO2	1	1.2
Cc1cccc2nc(-c3cccs3)c(Nc3ccccc3)n12	0.95	-1.8
COc1ccc(NC(=O)Cn2cnc3c(nnn3Cc3ccc(C)cc3)c2=O)c(OC)c1	0.84	-2.6
COCCN(CCOC)S(=O)(=O)c1ccc(C(=O)Nc2nnc(-c3ccc(OC)cc3)o2)cc1	0.79	-4.7
Cc1ccccc1N1C(=O)c2ccccc2C1Nc1cccc(Cl)c1C (centres undefined)	0.96	-1.5

Following part:
SMILES	CBX7 inh	CBX7 inh z-score
COc1ccccc1N(CC(O)CN1CCN(C)CC1)S(=O)(=O)c1ccccc1 (centres undefined)	0.94	-1.8
O=c1[nH]c(SCc2ccccc2Cl)nc2c1CCCC2	1.1	1.3
CCn1c(C(=O)N2CCN(C3CCCCC3)CC2)cc2sc(Cl)cc21	0.73	-4.5
CCCCNC(=O)c1sc2ncn(CC(=O)Nc3ccccc3OC)c(=O)c2c1C	1.3	2.5
O=C(Cn1c(=O)n(Cc2ccccc2)c(=O)c2cccnc21)Nc1ccc(Cl)cc1F	0.98	-0.28
COc1ccc(C(=O)Nc2nc3c(s2)CCc2ccc(OC)cc2-3)cc1	0.99	-0.13
Cc1cccc(C)c1Nc1c(-c2ccc(Cl)cc2)nc2ncccn12	0.92	-0.079
Cc1cccc(N2CCc3c2nc2ccc(Br)cc2c3N)c1	0.87	-1.7
Cc1ccc2c(c1)-c1c(cnn1CC(=O)Nc1ccc(C)c(F)c1)CO2	1	0.33
COc1cccc(CNC(=O)c2nnc(Cc3ccc(F)cc3)o2)c1	0.83	-2
Cc1ccc(NC(=O)C2CC(=O)N(c3ccccc3C)C2)cc1Cl (centres undefined)	0.97	-0.92
Cc1ccc(-c2nnc(Nc3ccc(Cl)c(Cl)c3)c3ccccc23)cc1S(=O)(=O)NCCO	0.87	-2.5
COc1ccc(NC(=O)C(CCS(C)(=O)=O)NC(C)=O)c(OC)c1 (centres undefined)	0.99	-0.44
O=C(COCc1cc(-c2ccc(F)cc2)on1)Nc1cccc(C(F)(F)F)c1	1.1	0.59
O=C(Nc1cccc(-c2nc3ncccc3o2)c1)c1cccnc1Cl	0.98	-1.2
CCC1Oc2ccccc2N(CC(=O)NCc2ccc(OC)cc2OC)C1=O (centres undefined)	0.9	-2.9
CN1C(=O)CSc2ccc(NC(=O)N3CCN(c4ccccn4)CC3)cc21	0.96	-0.99
O=C(Nc1cc(-c2nc3ncccc3o2)ccc1Cl)c1cccc2ccccc12	0.98	-0.23
O=c1c2nnn(Cc3ccc(F)cc3)c2ncn1Cc1cccc(F)c1	0.86	-2.4
Cc1ccc(OCCSc2nc3ccccc3[nH]2)cc1	0.87	-0.54
CCCC1=Nc2cc(C(=O)NCCCN3CCCCC3CC)ccc2Sc2ccccc21 (centres undefined)	0.85	-2.1
Cc1cccc(NC(=O)C(NS(=O)(=O)c2ccc3c(c2)CCC(=O)N3)c2ccccc2)c1C (centres undefined)	1.1	1.5
CC1CCN(c2oc(COc3cccc(Cl)c3)nc2C#N)CC1	0.57	-2.7
COc1ccc(CCN2CC34C=CC(O3)C(C(=O)NCc3ccc(F)cc3)C4C2=O)cc1OC (centres undefined)	1.2	3.7
Cc1ncc(CO)c2cc(C(=O)Nc3ccc4c(c3)OCO4)c(=O)oc12	1	0.79
COc1ccc(-c2noc(N(C)CC(=O)Nc3ccccc3F)n2)cc1	1	0.33
CCOc1ccc(C2CC(=O)NC3=C2C(=O)CC(C)(C)C3)cc1 (centres undefined)	0.97	-0.45
CCC(=O)N1CCc2cc(S(=O)(=O)NCCc3ccc(Cl)cc3)ccc21	1.3	1.3
CCC(=O)N1CCc2cc(S(=O)(=O)NC(C)c3ccccc3)ccc21 (centres undefined)	1.3	1.2
COCCNC(=O)c1nn(-c2ccccc2OC)c(=O)c2ccccc12	1	0.11
COc1ccc(-c2csc(Nc3ccc(Br)cc3)n2)cc1	0.61	-6.2
Cc1ccccc1NC(=O)c1ccc2nc(N3CCC(C)CC3)sc2c1	0.95	-1.1
